Sa growth 42C = blocks Staphylococcus aureus growth; relative growth, % (concentration not given with the values); 170,000 compounds, 0.53% hits; S. aureus RN4220 growth, OD600, 20 h, 42 °C; hits give low values; AID 720641;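 active = growth at 42 °C up to 50% and 20 or more points under that at 30 °C, or under 10% at both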;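 note: 300 nL library stock went into each well; scaled to the means of positive and negative controls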
HCMV UL50-53 inh = cytomegalovirus nuclear egress complex inhibition; HTRF UL50-UL53 interaction, normalized percent inhibition; inhibition, % (no concentration beside the values); 190,000 compounds, 0.15% hits; AID 1918969;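 active = both replicates at 50% or more, plus weaker picks with an unusually low signal ratio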;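 note: stock transfer was 100 nL into about 20 µL; 0% = negative control wells and 100% = wells with untagged competitor protein; inactives centre near -12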
GIV Gai3 FP = blocks GIV peptide binding to rat Galpha-i3. Galpha-i3/FITC-GIV peptide fluorescence polarization, 90 min; hits give low values; scaled: aluminum fluoride 0%, vehicle 100%. percent of control (FP), % (test concentration not listed). 210,000 compounds, 0.42% hits;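 active = replicate mean at 85% of control or lower, very high polarization wells dropped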;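 note: wells of about 15 µL received 100 nL stock; the first replicate is given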
Target sequence (P08753 whole entry, looked up): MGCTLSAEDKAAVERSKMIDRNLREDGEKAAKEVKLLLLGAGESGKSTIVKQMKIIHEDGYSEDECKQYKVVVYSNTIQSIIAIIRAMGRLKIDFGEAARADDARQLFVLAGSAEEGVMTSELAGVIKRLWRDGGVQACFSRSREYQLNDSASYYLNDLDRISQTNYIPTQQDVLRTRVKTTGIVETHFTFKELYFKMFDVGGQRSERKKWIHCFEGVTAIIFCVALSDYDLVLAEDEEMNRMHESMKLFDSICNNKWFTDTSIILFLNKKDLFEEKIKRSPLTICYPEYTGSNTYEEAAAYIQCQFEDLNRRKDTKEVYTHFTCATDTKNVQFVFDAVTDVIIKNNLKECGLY
Sa growth 42C second temp = second read-out of Sa growth 42C, no call of its own (marks repeat the call); relative growth, %; measured here: growth at 30 °C;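 optical density after 20 h as mean of two plates; 100% = untreated growth and lower means inhibition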
The depositor's hits bear a star; nt = no result given; & = joins results of further samples.

mol	Sa growth 42C second temp	Sa growth 42C	GIV Gai3 FP	HCMV UL50-53 inh
O=C1c2ccccc2C(=O)N1CC1CCCN2CCCCC12 (stereo not given)	87	94	106	1
O=C(Nc1cnc(N2CCC(N3CCCCC3)CC2)c(C(=O)O)c1)c1ccc(Br)cc1	88	106	99	nt
CN(Cc1ccco1)S(=O)(=O)c1nnc(NC(=O)c2ccccc2Cl)s1	51	119	103	9
Cc1nc(C)c(-c2ccnc(/N=C/NO)n2)s1	82	106	103	-16
COc1ccc(C2(C(=O)NC(C)C)CCOCC2)cc1	104	96	107	13
CCn1c(C(=O)NCc2ccccc2)cc2oc3ccccc3c21	88	121	106	nt
Cc1ccc(S(=O)(=O)NC(C)C(c2cccs2)N2CCN(C)CC2)cc1 (stereo not given)	91	92	102	-9
Cc1ccc(NC(=O)CSc2nc3ncccc3[nH]2)cc1	88	96	115	-2
CC1CCN(C(=O)Cn2cc(SCc3ccccc3)c3ccccc32)CC1	87	110	105	nt
CC(C)Cn1c(=O)c2ccccc2n2c(CCC(=O)Nc3cccc(Cl)c3)nnc12	87	92	101	-27
CCn1c(C(=O)O)c(CC(=O)N2CCC(Cc3ccccc3)CC2)c2ccccc21	nt	nt	107	4
CC1=C(c2ccc(F)cc2)S(=O)(=O)N(CC(=O)NCc2cccc(Br)c2)C1=O	nt	nt	104	4
COC(=O)C1=C(c2ccccc2)c2ccccc2S(=O)(=O)N1CC(=O)Nc1ccccc1C	nt	nt	98	-36
CC1CCN(C(=O)Cn2cc(SCC(=O)Nc3ccccc3)c3ccccc32)CC1	104	99	107&104	-7
COc1ccc(NC(=O)CSc2ncnc3nc(N4CCSCC4)sc23)cc1	nt	nt	106	-26
O=C(COc1nc2ccccc2nc1N1CCOCC1)N1CCc2ccccc2C1	102	93	nt	-10
O=C(O)C1CC=CCC1C(=O)N1CCOCC1 (stereo not given)	nt	nt	101	2
CCCn1c(SCc2nc3ccccc3[nH]2)nc2ccccc21	52	78	103	9
Fc1ccc(C2NCCc3c2[nH]c2ccccc32)cc1F (stereo not given)	nt	nt	104	17
O=C(CCc1nc2ccccc2s1)NC1CCCc2ccccc21 (stereo not given)	80	103	nt	-42

Following part
mol	Sa growth 42C second temp	Sa growth 42C	GIV Gai3 FP	HCMV UL50-53 inh
O=C(Nc1ccc2nc(SCC(=O)N3CCc4ccccc43)sc2c1)c1ccc(Cl)cc1	92	103	106	-5
COc1ccccc1NC(=O)C1=C(C)Nc2c(C(=O)Nc3ccc(C)cc3)cnn2C1c1cccc(OC)c1OC (stereo not given)	91	102	98	nt
Cc1csc2nc(-c3cccc(NC(=O)C(C)C)c3)cn12	91	104	107	nt
COc1ccccc1CNC(=O)Cn1ncc2c(=O)oc3ccc(C)cc3c21	82	108	101	-26
Cc1ccc(S(=O)(=O)N2Cc3ccccc3CC2C(=O)NCCC(C)C)cc1 (stereo not given)	88	98	nt	-34
CCC(C)C1NC(=S)N(C2CCCCC2)C1=O (stereo not given)	87	83	107	nt
CNS(=O)(=O)c1c[nH]c(=O)[nH]c1=O	nt	nt	112	2
COc1ccc(OCC2CN=C(c3ccccc3CO)O2)cc1 (stereo not given)	81	89	97	-18
CC(C)CN1C(=O)/C(=C/c2c(N3CCN(CCO)CC3)nc3ccccn3c2=O)SC1=S	nt	nt	41*	-86
Cc1ccc(-n2nc(CC#N)c(C#N)c2N)cc1	93	92	nt	-17
CN(CCc1noc(C2CCCCC2)n1)C(=O)c1cccc(N(C)C)c1	nt	nt	105	-20
O=C(O)C1OC(Oc2cc(O)c3c(=O)cc(-c4ccccc4)oc3c2O)C(O)C(O)C1O (stereo not given)	64	78	101	-68
CCc1ccc(NC(=O)CSC2=Nc3ccccc3C3=NC(CCC(=O)NCc4ccco4)C(=O)N23)cc1 (stereo not given)	89	103	98	nt
CCN1CCN(C(=O)CCC(=O)N2CC3CCCN3c3ccccc32)CC1 (stereo not given)	105	100	103	4
O=C(COC(=O)c1ccc(S(=O)(=O)N2CCCC2)cc1)NCc1ccccc1	86	95	nt	-3
CCc1noc(-c2ccc(NC(=O)C3CC(=O)N(c4ccc(C)cc4)C3)cc2)n1 (stereo not given)	nt	nt	108	-20
S=c1[nH]nc(COc2ccccc2Cl)n1C1CC1	92	101	nt	1
CC(Sc1nc2sc3c(c2c(=O)[nH]1)CCCC3)C(=O)Nc1nccs1 (stereo not given)	89	104	100	-12
CC(C)(C)OC(=O)N1CCCN(S(=O)(=O)c2ccc(-n3cccn3)cc2)CC1	89	95	101	-24
CCc1ccc(NC(=O)C(C)OC(=O)c2cccc(N(C)C)c2)cc1 (stereo not given)	92	108	nt	-34

Quoted at random: 4 entries already listed, in no set order.
mol	Sa growth 42C second temp	Sa growth 42C	GIV Gai3 FP	HCMV UL50-53 inh
COc1ccccc1NC(=O)C1=C(C)Nc2c(C(=O)Nc3ccc(C)cc3)cnn2C1c1cccc(OC)c1OC (stereo not given)	91	102	98	nt
CN(CCc1noc(C2CCCCC2)n1)C(=O)c1cccc(N(C)C)c1	nt	nt	105	-20
Cc1ccc(-n2nc(CC#N)c(C#N)c2N)cc1	93	92	nt	-17
CCN1CCN(C(=O)CCC(=O)N2CC3CCCN3c3ccccc32)CC1 (stereo not given)	105	100	103	4

Reformatted field by field: entries from further up
O=C(CCc1nc2ccccc2s1)NC1CCCc2ccccc21 (stereo not given)
  Sa growth 42C second temp: 80
  Sa growth 42C: 103
  GIV Gai3 FP: nt
  HCMV UL50-53 inh: -42
COc1ccccc1NC(=O)C1=C(C)Nc2c(C(=O)Nc3ccc(C)cc3)cnn2C1c1cccc(OC)c1OC (stereo not given)
  Sa growth 42C second temp: 91
  Sa growth 42C: 102
  GIV Gai3 FP: 98
  HCMV UL50-53 inh: nt

(continued)
mol	Sa growth 42C second temp	Sa growth 42C	GIV Gai3 FP	HCMV UL50-53 inh
CCOC(=O)c1cc(S(=O)(=O)NC2CC2)c(C)n1C	nt	nt	100	-30
CCc1ccc(CNCc2c(C(=O)O)c(C)n(Cc3c(F)cccc3Cl)c2C)cc1	74	112	110	-14
O=C(/C=c1/[nH]/c(=C/c2ccc(F)cc2)c(=O)[nH]c1=O)c1ccccc1	90	103	nt	-11
Cc1cc(CSc2ccccc2C(=O)O)on1	106	103	nt	5
CCS(=O)(=O)CCSc1nc(C)cc(C)c1C#N	96	93	110	8
COc1ccc(NC(=O)C2CCCN(S(=O)(=O)c3cc(-c4noc(C)n4)sc3C)C2)cc1OC (stereo not given)	nt	nt	105	-15
O=C(NCCc1ccccc1Cl)c1cc2ccccn2n1	99	91	103	nt
Cc1ccc2oc(-c3ccc(C)c(NC(=O)/C=C/c4ccco4)c3)nc2c1	88	97	104	-22
O=C(CC1(c2ccc(Cl)cc2)C(=O)c2ccccc2C1=O)N1CCOCC1	80	92	100	-16
CCOC(=O)[C@H](CCc1ccccc1)N[C@@H](C)C(=O)N1CCC[C@H]1C(=O)O	83&89	88&90	102	-4&-35&6
CN(C)c1ccc(-c2nc(-c3cc4ccc(O)cc4oc3=O)cs2)cc1	88	116	127	0
CC(C)C(=O)Nc1cccc(-c2cn3cccnc3n2)c1	90	89	99	-31
Cc1nn(Cc2ccccc2Cl)c(C)c1NC(=O)c1noc2c1CC(C(C)(C)C)CC2 (stereo not given)	95	94	99	-13
Cc1ccc(C(=O)N(Cc2nc3nc(C)cc(C)n3n2)c2ccc(C)cc2)cc1	nt	nt	99	-23
c1ccc(NCc2nnc3n2CCCCC3)cc1	75	108	nt	-24
CC(=O)Nc1c(O)n(C)c2ccccc12	78	100	102	2
CC(=O)N1CCN(C2=NC(=O)C(=C3CCCCC3)S2)CC1	88	98	101	-33
Cc1cc(=O)n(CC(=O)Nc2cc(Cl)ccc2C)c(C(C)C)n1	87	90	nt	-17
O=c1oc2c(Cl)cc(Cl)cc2cc1-c1nnc(-c2ccccc2)o1	nt	nt	104	-12
CSc1ccc(C(=O)Nc2ccc(-c3nc4ccccc4s3)c(O)c2)cc1	81	111	110	nt

More records:
mol	Sa growth 42C second temp	Sa growth 42C	GIV Gai3 FP	HCMV UL50-53 inh
CCS(=O)(=O)Nc1cnc(N(CC(C)C)CC(C)C)c(C(=O)O)c1	nt	nt	114	-17
COc1ccc(-c2cc(C(=O)Nc3cccc(C(C)=O)c3)c3ccccc3n2)cc1	nt	nt	106	-14
CC1(C)OC2C(CO)OC(n3cnc4c(=O)[nH]cnc43)C2O1 (stereo not given)	81&92	86&121	108	-17&-6
O=C(NCc1cccc(Cl)c1)c1ccc(NC(=O)N2CCCCc3ccccc32)cc1	nt	nt	105	-14
O=c1cc(O)c2sc3nc4c(c(C(F)(F)F)c3c2[nH]1)CCCCC4	93	68	107	nt
CCOC(=O)C1=C(C)NC(C)=C(C(=O)OCC)C1C(=O)OCc1cc(=O)oc2cc(O)ccc12	88	93	nt	-22
Cn1c(=O)c(=O)n(C)c2cc(Oc3ccccc3)c(NS(=O)(=O)c3ccc(C(C)(C)C)cc3)cc21	nt	nt	98	-14
Oc1ccc(Br)cc1C=NCc1ccncc1	80	92	109	-10
CCc1ccccc1NC(=O)C1NC(=O)CC1c1ccccc1 (stereo not given)	88	100	105	-10
CCc1nc2c(c(=O)[nH]1)C1(CCCCC1)Cc1ccccc1-2	97	96	100	-17
COc1ccc(-n2c(O)c(C=NC(C)(C)C)c3ccccc3c2=O)cc1	79	114	nt	-48
N#Cc1c(C(F)(F)F)cc(-c2cccs2)nc1SCC(=O)Nc1cccc(Br)c1	84	105	103	-20
Cc1nc(SCC(=O)Nc2ccccc2F)c2c3c(sc2n1)CCCC3	nt	nt	101	-7
COc1cc(CN(C(=O)COc2ccc(F)cc2)c2ccccn2)cc(OC)c1OC	82	102	107	-24
Cc1ccc(C(=O)NCCN2CCNC2=O)cc1	104	111	104	38
COc1ccc(C2CC(=O)C3=C(C2)NC(C)=C(C(=O)OC2CCCC2)C3c2ccc([N+](=O)[O-])cc2)cc1 (stereo not given)	nt	nt	100	-19
Cc1cccc(C(=O)NNc2ncnc3c2cnn3-c2ccc(C)c(Cl)c2)c1	92	103	96	nt
CCOc1cccc(/C(O)=C2/C(=O)C(=O)N(Cc3ccncc3)C2c2ccccc2)c1 (stereo not given)	92	120	105	-15
COc1ccc(-c2nc(NC(=O)c3cccc(-n4cnnn4)c3)sc2C)cc1	92	82	nt	-11

An excerpt from above in order of length of the SMILES, rising.
mol	Sa growth 42C second temp	Sa growth 42C	GIV Gai3 FP	HCMV UL50-53 inh
Cc1cc(CSc2ccccc2C(=O)O)on1	106	103	nt	5
Cc1ccc(C(=O)NCCN2CCNC2=O)cc1	104	111	104	38
CNS(=O)(=O)c1c[nH]c(=O)[nH]c1=O	nt	nt	112	2
CCc1nc2c(c(=O)[nH]1)C1(CCCCC1)Cc1ccccc1-2	97	96	100	-17
CCN1CCN(C(=O)CCC(=O)N2CC3CCCN3c3ccccc32)CC1 (stereo not given)	105	100	103	4
COc1ccc(-c2cc(C(=O)Nc3cccc(C(C)=O)c3)c3ccccc3n2)cc1	nt	nt	106	-14

Two compounds from above with just Sa growth 42C second temp and HCMV UL50-53 inh:
Structure | Sa growth 42C second temp | HCMV UL50-53 inh
CCc1ccccc1NC(=O)C1NC(=O)CC1c1ccccc1 (stereo not given) | 88 | -10
CCS(=O)(=O)Nc1cnc(N(CC(C)C)CC(C)C)c(C(=O)O)c1 | nt | -17

Screens from PubChem BioAssay.
